Screens as filed in PubChem.
KCNQ2 block: KCNQ2 channel blockers in CHO-K1 cells – cell-based, FluxOR thallium flux, B-score, primary screen (AID 2156). 20 min; stronger effect = lower value; only compounds with negative scores are shown here; some inactives read as strong as hits. B-score at 10 µM. hit rate 1.1% among 310,000;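 active = fluorescence ratio B-score at most minus 3 library SDs, with starting brightness B-score within 2 library SDs, cut at about -5.5 in these data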
Target sequence (O88943 whole entry, looked up): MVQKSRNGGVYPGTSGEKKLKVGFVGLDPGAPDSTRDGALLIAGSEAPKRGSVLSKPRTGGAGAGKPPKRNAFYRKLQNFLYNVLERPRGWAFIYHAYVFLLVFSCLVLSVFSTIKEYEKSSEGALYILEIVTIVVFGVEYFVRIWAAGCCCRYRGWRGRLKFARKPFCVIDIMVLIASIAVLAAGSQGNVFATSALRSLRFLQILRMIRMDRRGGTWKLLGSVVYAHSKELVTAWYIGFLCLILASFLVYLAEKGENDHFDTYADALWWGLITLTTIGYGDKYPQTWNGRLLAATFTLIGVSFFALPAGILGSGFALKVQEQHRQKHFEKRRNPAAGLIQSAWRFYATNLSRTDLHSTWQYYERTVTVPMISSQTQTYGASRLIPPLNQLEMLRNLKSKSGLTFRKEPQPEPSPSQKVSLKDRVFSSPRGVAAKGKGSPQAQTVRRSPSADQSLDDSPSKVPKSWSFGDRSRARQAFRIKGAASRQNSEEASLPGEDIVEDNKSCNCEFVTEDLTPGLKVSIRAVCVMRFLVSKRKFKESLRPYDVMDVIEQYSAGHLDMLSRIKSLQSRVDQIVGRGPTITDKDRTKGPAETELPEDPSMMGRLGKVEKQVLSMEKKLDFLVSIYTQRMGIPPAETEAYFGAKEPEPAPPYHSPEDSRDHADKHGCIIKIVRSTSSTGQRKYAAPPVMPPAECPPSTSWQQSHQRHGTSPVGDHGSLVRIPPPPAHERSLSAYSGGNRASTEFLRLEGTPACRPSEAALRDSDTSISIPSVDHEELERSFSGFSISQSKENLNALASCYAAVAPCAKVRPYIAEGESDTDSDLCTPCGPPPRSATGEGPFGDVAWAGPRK
KCNQ2 block baseline: recorded beside KCNQ2 block, whose call it bears; B-score; measured here: initial fluorescence intensity artifact check;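 brightness before thallium and not channel activity; 0 = typical well and far values either way flag optical interference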
Active calls of the source: *; i = inactive. These rows are one share of the data; rates above refer to the full screens.

SMILES | KCNQ2 block | KCNQ2 block baseline
CC(=O)Nc1ccc(NC2=Nc3ccccc3N3C2=Nc2c(c(C)nn2-c2ccccc2)C3c2ccccc2)cc1 (stereo unspecified) | i | 1.6
NC(=O)C1(N2CCCCC2)CCN(Cc2nc(-c3cccs3)no2)CC1 | i | -0.68
O=C(CN1CCN(c2ccc(O)cc2)CC1)NC(=O)NCc1ccco1 | i | -0.8
O=C1c2c(Br)c(Br)c(Br)c(Br)c2C(=O)N1c1ccccn1 | i | 0.68
CCOCCCNC(=O)CN1CCN(Cc2ccccc2C)C1=O | i | 1.1
COCCNC(=O)C(c1ccc(O)cc1)N(C(=O)CCC(=O)Nc1nccs1)c1cccc(C)c1 (stereo unspecified) | i | -1.7
O=[N+]([O-])c1ccc(Cl)c(/C=N/N2CCN(c3ccccc3)CC2)c1 | i | -0.1
Cc1cccc(/C(N)=N/OC(=O)N2c3ccccc3Sc3ccccc32)c1 | -6.8* | 0.05*
O=C(O)c1ccn[nH]1 | i | -0.75
Cc1cccc(CCNC(=O)C2CCN(S(=O)(=O)c3c(C)noc3C)CC2)c1 | i | -0.32
Cc1ccc(CC(=O)Nc2cc([N+](=O)[O-])ccc2F)cc1 | i | 1.9
C[C@H](NC(=O)c1cc2c(cn1)[nH]c1ccccc12)C(=O)O | i | 0.1
CCCc1noc2c1C(c1cc(Br)ccc1F)C(C#N)=C(N)N2 (stereo unspecified) | i | 1.1
O=C(c1cccc(F)c1)N1CCN(c2cccc(C(F)(F)F)c2)CC1 | i | -0.78
O=C(NCc1ccco1)C1CCN(C(=O)c2ccc(Cl)cc2Cl)CC1 | i | -0.49
CCc1ccc(-c2cc(C)no2)cc1S(=O)(=O)N1CCN(c2ccccn2)CC1 | i | -2.3
CCOC(=O)c1cc(C#N)c(SCc2cccc3ccccc23)nc1C | i | -0.44
COc1ccc(N(CC(=O)NCCC2=CCCCC2)S(=O)(=O)c2ccc(C)cc2)cc1 | i | 0.87
COc1ccc(NC(=O)C2CCN(S(=O)(=O)c3cccc4cccnc34)CC2)cc1 | i | 1.2
COCCN1CN=C(NS(=O)(=O)c2ccc(C)cc2)NC1 | i | -0.02
COC(=O)[C@H](CCSC)NC(=O)Nc1cc(C)ccc1C | i | 1.1
CCN(C(=O)CSc1nncn1-c1ccccc1)c1c(N)n(Cc2ccccc2)c(=O)[nH]c1=O | i | 0.6
Nc1cc(Cl)ccc1C(=O)OCC(=O)N1CCCC1 | i | 0.62
O=C1C(=O)N(Cc2cccnc2)C(c2cccc([N+](=O)[O-])c2)/C1=C(\O)c1ccc2c(c1)OCCO2 (stereo unspecified) | i | 0.26
O=C(Cc1ccccc1)c1nnc(-c2ccccc2)o1 | i | -0.12

Two entries from above, as labelled records:
structure: Cc1ccc(CC(=O)Nc2cc([N+](=O)[O-])ccc2F)cc1
  KCNQ2 block: i | KCNQ2 block baseline: 1.9
structure: O=C(Cc1ccccc1)c1nnc(-c2ccccc2)o1
  KCNQ2 block: i | KCNQ2 block baseline: -0.12

Remaining list, next part
SMILES | KCNQ2 block | KCNQ2 block baseline
O=c1nc2ccccc2c(NS(=O)(=O)c2ccccc2)n1-c1ccccc1 | i | 0.25
Cc1ccccc1Cn1cc(C)c(=O)[nH]c1=O | i | 0.78
CC1(C)Cc2cccc(OCC(=O)N3CCN(c4ccccc4Cl)CC3)c2O1 | -6.2* | 0.43*
Cc1cccc(C)c1NC(=O)COC(=O)C1C2CC3OC(=O)C1C3C2 (stereo unspecified) | i | -1.4
Cc1ccccc1Nc1nc(N)nc(CN2C(=O)NC3(CCCCC3C)C2=O)n1 (stereo unspecified) | i | -0.31
COc1ccc(Cl)cc1CNCCCSc1ncccn1 | i | 0.04
COc1ccc(-c2cc(C(F)(F)F)n3nc(C(=O)NCc4ccco4)c(Cl)c3n2)cc1 | i | 1.2
COc1ccc(-c2noc(CSc3nnc(Cc4ccccc4)n3-c3cccc(C)c3)n2)cc1OC | i | 3.5
C=CCn1c(SCC(=O)NCc2ccco2)nnc1-c1ccc2ccccc2n1 | i | -0.58
COc1ccc(Cn2nnnc2C(c2ccncc2)N2CCOCC2)cc1 (stereo unspecified) | i | 0.02
C/C(=N\NC(=O)c1nnn(-c2nonc2N)c1CN1CCOCC1)c1ccc(CC(C)C)cc1 | i | 0.43
COCCN(CC1CCCN(C2Cc3ccccc3C2)C1)C(=O)c1ccc(C(C)=O)cc1 (stereo unspecified) | i | -1
CN1C(=O)c2ccc(C(=O)Nc3ccc(Br)cn3)cc2C1=O | i | 2.4
O=CN1CCCN(Cc2nc(Cc3ccccc3F)no2)CC1 | i | 1.1
Oc1ccc(C[C@H]2CNCCN2CCc2cccc3ccccc23)cc1 | i | 0.02
O=C1CSC(c2cn(-c3ccccc3)nc2-c2cc3ccccc3oc2=O)N1Cc1cccnc1 (stereo unspecified) | i | -0.34
CCOC(=O)COc1cccc2c(=O)n(CC(=O)NCc3ccccc3)ccc12 | i | 0.33
Cc1noc(NS(=O)(=O)c2ccc(NC(=O)CC(C)C)cc2)c1C | i | -1.6
COc1ccc(-c2ccc(S(=O)(=O)N3CCCC3)cc2)cc1 | i | 0.02
Cn1c(=O)cc(Nc2ccccc2)c2c(=O)n(-c3ccccc3)c(=O)n(-c3ccccc3)c21 | i | -0.98
COc1ccc2[nH]c(C)c(C(=O)CN3CCN(C(=O)c4ccco4)CC3)c2c1 | i | 0.6
O=C(C(Cc1ccccc1)N1C(=O)c2ccccc2C1=O)N1c2ccccc2CCc2ccccc21 (stereo unspecified) | i | -0.35
NC(=O)C1CCN(C(=O)c2cc3ccccn3n2)CC1 | i | 0.48
O=C(O)CN1C(=O)c2ccc(Oc3cccc4c3C(=O)N(CC(=O)O)C4=O)cc2C1=O | i | 1.3
Cc1ccc(S(=O)(=O)N2CCCCC2)cc1NC(=O)COC(=O)Cc1c(F)cccc1Cl | i | -3.2
SMILES | KCNQ2 block | KCNQ2 block baseline
COc1cccc(CSc2nnc(-c3ccc(F)cc3)o2)c1 | i | 1.6
CNC(=S)N1CCn2cccc2C1c1ccc(F)cc1 (stereo unspecified) | i | 2.1
COc1cc(OC)c2c(-c3ccccc3)cc(=O)oc2c1C(CC(=O)N1CCOCC1)c1ccc(N(C)C)cc1 (stereo unspecified) | i | -2.2
CN1CCN(S(=O)(=O)c2ccc3c(c2)NC(=O)CS3)CC1 | i | -0.92
COc1cc(/C=N/NC(=O)CNC(=O)c2ccccc2)ccc1OC(=O)c1cccs1 | i | 1.1
O=C(Nc1cc(Cl)ccc1O)c1cc2n(n1)C(C(F)(F)F)CC(c1ccc3c(c1)OCO3)N2 (stereo unspecified) | i | -1.9
Cc1nn(-c2ccccc2)c(C)c1C(=O)OCC(=O)c1c(N)n(CC(C)C)c(=O)n(C)c1=O | i | 0.03
CCN1C(=O)[C@H]2[C@@H](c3ccc(C)cc3)N3C(=O)N(c4ccccc4)C(=O)[C@@]3(Cc3ccccc3)[C@H]2C1=O | i | -0.51
COc1ccc(CCNC(=O)c2cc(-c3ccccn3)nc3c(Cl)cccc23)cc1OC | i | 0.56
CCCCC(=O)Nc1nnc(SCC(=O)N2CCN(c3ccccc3OC)CC2)s1 | i | -0.06
COc1c(Cl)cc(C(=O)Nc2ccccc2-c2ccccc2)cc1Cl | i | -2.3
Cc1nc2sc3c(c2c2nnc(SCC(=O)NCc4ccco4)n12)CCCC3 | i | -1.3
Cc1cc(C)c(C)c(OCCN2CC(C)OC(C)C2)c1 (stereo unspecified) | i | -0.05
COc1ccc(Cl)cc1NC(=O)CN1CCN(S(=O)(=O)c2ccc(F)cc2)CC1 | i | 2.8
CCN(CC)CCCNC(=S)N(CCO)Cc1cc2cc3c(cc2[nH]c1=O)OCCO3 | i | -1.1
O=C1c2ccsc2SCCN1Cc1cccc(Cl)c1 | i | 0.56
CCOC(=O)C1CCCN(C(=O)C2CCN(S(=O)(=O)c3ccc4ccccc4c3)CC2)C1 (stereo unspecified) | i | 1.2
Cc1ccccc1-c1cc(C(=O)n2cccn2)c2cc(Cl)ccc2n1 | i | 1.6
CC(=O)c1cccc(N(C(=O)Cn2nnc3ccccc32)C(C(=O)NCc2ccccc2)c2ccccn2)c1 (stereo unspecified) | i | 0.9
Cc1ccc(-n2nc3c(=O)n(CCCC(=O)N4CCC(C(N)=O)CC4)nc(C)c3c2C)cc1 | i | 0.65
Cc1ccc(S(=O)(=O)/N=C(/NC(=S)Nc2c(C)n(C)n(-c3ccccc3)c2=O)c2ccccc2)cc1 | i | -0.43
CN1Cc2c(N3CCOCC3)nc3sc(C(=O)c4ccc(Br)cc4)c(N)c3c2CC1(C)C | i | 0.67
COc1cc(CNC2CCCCCC2)cc(OC)c1OC | i | -1.6
Cc1ccc(N/N=C2\CCS(=O)(=O)c3sccc32)cc1 | i | 0.13
CN(C)S(=O)(=O)N(CCN1CCOCC1)Cc1ccccc1F | i | -1.8

Single values from the list:
For KCNQ2 block baseline, Cc1noc(NS(=O)(=O)c2ccc(NC(=O)CC(C)C)cc2)c1C has the entry -1.6
For KCNQ2 block baseline, COc1ccc(Cn2nnnc2C(c2ccncc2)N2CCOCC2)cc1 (stereo unspecified) has the entry 0.02
For KCNQ2 block baseline, Cc1ccccc1Nc1nc(N)nc(CN2C(=O)NC3(CCCCC3C)C2=O)n1 (stereo unspecified) has the entry -0.31
For KCNQ2 block baseline, Cc1ccccc1Cn1cc(C)c(=O)[nH]c1=O has the entry 0.78

Part of the list above, as tab-separated lines:
molecule	KCNQ2 block	KCNQ2 block baseline
COc1cc(/C=N/NC(=O)CNC(=O)c2ccccc2)ccc1OC(=O)c1cccs1	i	1.1
O=C(Nc1cc(Cl)ccc1O)c1cc2n(n1)C(C(F)(F)F)CC(c1ccc3c(c1)OCO3)N2 (stereo unspecified)	i	-1.9
Cc1nn(-c2ccccc2)c(C)c1C(=O)OCC(=O)c1c(N)n(CC(C)C)c(=O)n(C)c1=O	i	0.03

Carrying on:
SMILES | KCNQ2 block | KCNQ2 block baseline
CCO[C@@H]1OC(C(=O)NCc2ccccc2)=C[C@H](C2CCCCC2)[C@H]1CCCO | i | 1.3
COCc1ccc(C(=O)N2CCCC(C(=O)c3ccc(Cl)cc3C)C2)o1 (stereo unspecified) | i | -0.45
Cc1occc1-c1nnc(SCC(=O)NCc2ccc3c(c2)OCO3)n1CC(C)C | i | 0.98
CCOc1ccc2[nH]c(=O)c(C(c3nnnn3Cc3ccco3)N3CCN(C)CC3)cc2c1 (stereo unspecified) | i | 1.7
COc1ccccc1OCc1ccc(C(=O)N(C)c2ccccc2)o1 | i | 1.2
Cc1ccc(C)c(NC(=O)C2CCCN2C(=O)OC(C)(C)C)c1 (stereo unspecified) | i | -1.6
Fc1ccc(N2CCN(c3ncnc4c3nnn4Cc3ccccc3Cl)CC2)cc1 | i | 2.4
O=C(NC1CCc2ccccc21)C1CCN(S(=O)(=O)c2ccc(Cl)cc2)CC1 (stereo unspecified) | i | -1.1
O=C1NC(=O)C(Cc2ccccc2)(c2cccnc2)N1 (stereo unspecified) | i | -0.11
O=S1(=O)CC/C(=N\O)c2ccccc21 | i | 0.47
COc1ccc(OC)c2c(C)cc(N3CCN(C(=O)c4ccc(Cl)cc4)CC3)nc12 | i | 3.9
O=C(Cn1c(COc2ccccc2)nc2ccccc21)Nc1cc(Cl)cc(Cl)c1 | i | 1.9
Cc1nnsc1S(=O)c1ccccc1Cl (stereo unspecified) | i | -0.33
Cc1ccc(Sc2nnc(-c3ccccc3)cc2C#N)cc1 | i | -0.06
COc1cccc(CC2(CO)CCCN(CC3=Cc4cc(Cl)ccc4OC3)C2)c1 (stereo unspecified) | i | -1.6
O=C(COCc1cc(-c2ccc3c(c2)OCO3)on1)N1CCCCC1 | i | 0.02
CCOC(=O)CC(=O)CSc1nc(-c2ccc3c(c2)OCO3)cc(C(F)(F)F)c1C#N | i | 2.3
CCOC(=O)c1nn(-c2ccc(C)cc2)c(C)c1C(C)=O | i | 1.6
Cc1ccc(-c2nnn(CC(=O)N(Cc3ccco3)C(C(=O)NC(C)(C)C)c3ccc(C)o3)n2)o1 (stereo unspecified) | i | -1.4
CNc1nc2c(Cl)cc(Cl)cc2s1 | i | -0.11
O=C(Cc1cccs1)NCc1ccccc1F | i | 0.12
Cc1ncc(CN2CCCC(C(=O)Nc3ccc(-c4cscn4)cc3)C2)cn1 (stereo unspecified) | i | 1.6
CSc1nncc(-c2ccc(F)c(F)c2)n1 | i | -1.5
CC1CCCCC1NC(=O)c1ccc(NS(=O)(=O)c2ccc3[nH]c(=O)[nH]c3c2)cc1 (stereo unspecified) | i | 0.35
O=C(Nc1cccc(Cl)c1)N1N=CCC1c1ccccc1 (stereo unspecified) | -6.2* | 0.19*

Complete entries, looked up by structure. Order of values: KCNQ2 block, KCNQ2 block baseline
Record of O=S1(=O)CC/C(=N\O)c2ccccc21 = i, 0.47
Record of Fc1ccc(N2CCN(c3ncnc4c3nnn4Cc3ccccc3Cl)CC2)cc1 = i, 2.4

(list continues)
SMILES | KCNQ2 block | KCNQ2 block baseline
COC(=O)c1c(NC(=O)C2Cc3ccccc3C(=O)O2)sc2c1CCCC2 (stereo unspecified) | i | -0.47
CCCCn1c(=O)[nH]c(=O)c2c1nc(-c1ccc3ccccc3c1)n2CC | i | 1
COc1cccc(NC(=O)C2CCN(c3cnccn3)CC2)c1 | i | 0.95
O=C(O)Cc1sc(Nc2cccc3ccccc23)nc1-c1ccc(F)cc1 | i | 0.97
CN(Cc1ccccc1)C(=O)CSc1nc2ccccc2c(=O)n1Cc1ccco1 | i | 0.67
CCOC(=O)C1=C(C)NC(=O)NC1c1ccccc1Cl (stereo unspecified) | i | 1.9
CC1CC2(CCCCC2)Nc2ccc3ccccc3c21 (stereo unspecified) | i | -1.2
O=C(NCc1cccc(C(F)(F)F)c1)C1CC(c2ccccc2C(F)(F)F)=NO1 (stereo unspecified) | i | 0.47
Cc1cccc(C(=O)OCC(=O)NCc2cccs2)c1 | i | -1.2
Cc1cccc(NC(=S)N(Cc2cccc(Br)c2)CC2CCC(C(=O)O)CC2)c1 (stereo unspecified) | i | -0.27
Cc1ccc(-c2[nH]nc3c2C(c2ccoc2)C(C#N)=C(N)O3)cc1C (stereo unspecified) | i | -2.2
CCn1nnc(NC(=O)C(c2ccccc2)c2ccccc2)n1 | i | 1.2
CCOC(=O)CSc1cc(=O)n(CC)c2ccccc12 | i | -0.63
Cc1ccc(CNC(=O)Cc2cccs2)cc1 | i | -1.7
